LYP inh 2 = inhibitors of human LYP (PTPN22) phosphatase. recombinant LYP catalytic domain, DiFMUP fluorescence. inhibition, % at 2 µM. actives 0.21% (n = 96,000);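 active = inhibition at 2 µM at or above a set limit, the screen mean plus 3 SD, cut at about 24% in these data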;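 note: 0% = DMSO with enzyme and 100% = enzyme fully blocked by orthovanadate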
S1P2 blocker = antagonists of human S1P2 receptor. inhibition, % at 5 µM. actives 0.21% (n = 97,000). AID 736. O95136. cell-based S1P2 antagonist assay, inhibition at 5 uM; in the data active = inhibition above about 45%;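 note: CRE beta-lactamase reporter cells expressing human S1P2 stimulated with S1P; 0% = agonist at EC80 alone and 100% = agonist plus reference antagonist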
Target sequence (O95136 whole entry, looked up): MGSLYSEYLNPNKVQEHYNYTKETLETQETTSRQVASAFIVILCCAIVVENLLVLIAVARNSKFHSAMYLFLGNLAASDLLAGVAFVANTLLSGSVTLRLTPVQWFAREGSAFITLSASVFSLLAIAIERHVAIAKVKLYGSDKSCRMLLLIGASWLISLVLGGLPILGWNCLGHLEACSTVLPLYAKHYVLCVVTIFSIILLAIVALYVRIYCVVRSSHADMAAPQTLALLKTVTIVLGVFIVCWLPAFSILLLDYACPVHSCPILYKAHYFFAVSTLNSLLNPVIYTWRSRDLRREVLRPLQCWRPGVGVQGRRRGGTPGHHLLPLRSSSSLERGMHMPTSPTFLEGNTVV
S1P2 agonist = activates the human S1P2 receptor. AID 729. O95136. actives 0.46% (n = 97,000). activation, % at 4.5 µM. S1P2-expressing cell line, agonist reporter read-out; in the data active = activation above about 16%;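 note: 0% = vehicle low control and 100% = maximal reference agonist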
PostGolgi ctrl = inhibits growth of the yeast control strain | efflux-deficient yeast background strain, growth absorbance A615, 16 h | inhibition, % at 10 µM | actives 5% (n = 98,000) | AID 738
LYP act = increases human PTPN22 phosphatase activity; Q9Y2R2; recombinant LYP, DiFMUP fluorescence; 0 = plate median, 100 = signal doubled; activation, % at 2 µM; actives 0.11% (n = 96,000); AID 697;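 active = activation at 2 µM above a set limit, the mean plus 5 SD, cut at about 37% in these data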
PostGolgi yeast = growth inhibition of a yeast mutant, post-Golgi transport screen | post-Golgi transport phenotypic cell assay | inhibition, % at 10 µM | actives 0.9% (n = 98,000) | AID 739;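 note: yeast cells grown in 1536-well plates; yeast grown about 18 h at 30C before absorbance read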
Rev-RRE block = HIV Rev-RRE protein-RNA interaction inhibition; P05866; Rev peptide-RRE RNA binding, FRET; inhibition, % at 8 µM; actives 0.79% (n = 97,000);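 active = inhibition above the screen-wide mean plus 3 SD, cut at about 35% in these data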;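 note: 0% = median DMSO wells and 100% = median Neomycin B control wells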
Target sequence (P05866 whole entry, looked up): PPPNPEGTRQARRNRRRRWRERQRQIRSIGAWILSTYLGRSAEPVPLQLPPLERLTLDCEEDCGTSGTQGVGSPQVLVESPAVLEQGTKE
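Test system: Cy5-tagged RRE RNA duplex with fluorescein-tagged Rev peptide | Read-out: % inhibition of FRET ratio versus controls | Probe or stimulus: Labelled Rev peptide | Incubation: 5 min RNA-compound premix plus 15 min binding step, 25 °C | Technique: FRET fluorescence readout | Benchmarks: DMSO low control, neomycin B high control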
EphB4 ephrin blk = antagonists of human EphB4-ephrin-B2 interaction; inhibition, % at 7 µM; AID 720; actives 0.15% (n = 97,000); P54760; EphB4 LBD / TNYL-RAW-Alexa532 peptide, fluorescence polarization;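 active = inhibition above the screen-wide mean inhibition plus 3 SD, cut at about 15% in these data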;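 note: 0% = DMSO wells and 100% = excess unlabeled TNYL-RAW peptide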
Active calls of the source: *. Cut-off read from the data, not from the text of the source, unless noted: active = inhibition above about 30%; inactive = the rest. The list is partial; count on the stated rates, not on these rows.

For COc1cc2c(cc1NC(=O)c1cccc([N+](=O)[O-])c1C)oc1ccccc12 the results were LYP inh 2 -3, S1P2 blocker 8, S1P2 agonist -6, PostGolgi ctrl 25, LYP act 5, PostGolgi yeast 2, Rev-RRE block 4 and EphB4 ephrin blk -1.
C(#Cc1ccccc1)CN1CCN(c2ccccn2)CC1 was read as LYP inh 2 -7, S1P2 blocker 11, S1P2 agonist -8, PostGolgi ctrl -1, LYP act 5, PostGolgi yeast 25, Rev-RRE block 9 and EphB4 ephrin blk 7.
`O=C(Nc1ccccc1N1CCOCC1)c1ccc(Br)o1` gave LYP inh 2 -2, S1P2 blocker -23, S1P2 agonist -3, PostGolgi ctrl 16, LYP act -3, PostGolgi yeast 2, Rev-RRE block 4 and EphB4 ephrin blk -3.
COc1cc(OC)cc(C(=O)N[C@H](C(=O)OCC(=O)c2ccc3c(c2)NC(=O)CO3)C(C)C)c1 was read as LYP inh 2 -3, S1P2 blocker -28, S1P2 agonist -5, PostGolgi ctrl 3, LYP act 0, PostGolgi yeast 4, Rev-RRE block 1 and EphB4 ephrin blk -4.
For O=c1cc(-c2ccccc2)nc2n1Cc1ccccc1-2 the results were LYP inh 2 0, S1P2 blocker 2, S1P2 agonist -2, PostGolgi ctrl 6, LYP act 2, PostGolgi yeast 27, Rev-RRE block 11 and EphB4 ephrin blk 11.
Screening COCc1cc(=O)[nH]c2cc(NC(=O)C(C)(C)CCl)c(C)cc12 returned LYP inh 2 6, S1P2 blocker 2, S1P2 agonist -4, PostGolgi ctrl 10, LYP act -2, PostGolgi yeast -5, Rev-RRE block 5 and EphB4 ephrin blk -4.
`CCOC(=O)c1c(CC(C)C)csc1NC(=O)C(C)C` gave LYP inh 2 14, S1P2 blocker -7, S1P2 agonist -3, PostGolgi ctrl 17, LYP act -13, PostGolgi yeast -2, Rev-RRE block 5 and EphB4 ephrin blk 4.
`COc1ccccc1-n1c(-c2ccc(NS(C)(=O)=O)cc2)n[nH]c1=S` gave LYP inh 2 2, S1P2 blocker -4, S1P2 agonist -2, PostGolgi ctrl 14, LYP act -2, PostGolgi yeast 7, Rev-RRE block 5 and EphB4 ephrin blk 2.
For COc1ccc(C(=O)Nc2ccc(S(=O)(=O)Nc3nccnc3OC)cc2)cc1OC the results were LYP inh 2 -9, S1P2 blocker 21, S1P2 agonist -5, PostGolgi ctrl 10, LYP act 4, PostGolgi yeast 11, Rev-RRE block 7 and EphB4 ephrin blk 8.
`O=c1oc(-c2ccco2)nc2ccccc12` gave LYP inh 2 3, S1P2 blocker 7, S1P2 agonist -10, PostGolgi ctrl -1, LYP act -2, PostGolgi yeast 2, Rev-RRE block 9 and EphB4 ephrin blk 4.
Screening O=C(Nc1ccccc1[N+](=O)[O-])C1=C(O)CCn2c1nc1ccccc12 returned LYP inh 2 10, S1P2 blocker -20, S1P2 agonist 3, PostGolgi ctrl 3, LYP act -8, PostGolgi yeast 10, Rev-RRE block -4 and EphB4 ephrin blk 2.
`CCc1ccc(N2C(=O)C3ON(c4ccccc4)C(c4ccco4)C3C2=O)cc1` (centres undefined) gave LYP inh 2 3, S1P2 blocker 4, S1P2 agonist -2, PostGolgi ctrl 23, LYP act -3, PostGolgi yeast 8, Rev-RRE block 15 and EphB4 ephrin blk 13.
O=C(Cn1nc(-c2ccccc2)nc1-c1ccccc1)OC1CCCCC1 was read as LYP inh 2 8, S1P2 blocker 11, S1P2 agonist -4, LYP act -6, Rev-RRE block 5 and EphB4 ephrin blk -9.
For O=C(CCN1C(=O)C2C3C=CC(C3)C2C1=O)N1CCN(c2cccc(Cl)c2)CC1 (centres undefined) the results were LYP inh 2 7, S1P2 blocker 14, S1P2 agonist -7, PostGolgi ctrl 9, LYP act -8, PostGolgi yeast 11, Rev-RRE block 6 and EphB4 ephrin blk 1.
COc1ccc(OC)c(-n2c(-c3cc(-c4ccc(F)cc4)n[nH]3)n[nH]c2=S)c1 was read as LYP inh 2 11, S1P2 blocker 7, S1P2 agonist -9, PostGolgi ctrl -2, LYP act -7, PostGolgi yeast -3, Rev-RRE block 5 and EphB4 ephrin blk -2.
`COc1ccc(-c2cc3ccccc3oc2=O)cc1NC(=O)c1cccnc1` gave LYP inh 2 6, S1P2 blocker 6, S1P2 agonist -5, PostGolgi ctrl 2, LYP act -3, PostGolgi yeast -2, Rev-RRE block 4 and EphB4 ephrin blk 10.
For Cn1c(COc2ccccc2)nnc1SCC(=O)Nc1ccc(S(N)(=O)=O)cc1 the results were LYP inh 2 10, S1P2 blocker -3, S1P2 agonist 1, PostGolgi ctrl 6, LYP act -10, PostGolgi yeast -6, Rev-RRE block 7 and EphB4 ephrin blk 4.
For COc1ccc(C2CC(=O)NC3=C2C(=O)CCC3)cc1Cl (centres undefined) the results were LYP inh 2 -8, S1P2 blocker -2, S1P2 agonist -2, PostGolgi ctrl 10, LYP act 6, PostGolgi yeast 0, Rev-RRE block 1 and EphB4 ephrin blk -9.
`CCC(CC)NC(=O)COC(=O)c1ccc(NS(=O)(=O)c2ccc3c(c2)OCCO3)cc1` gave LYP inh 2 -15, S1P2 blocker -9, S1P2 agonist 1, PostGolgi ctrl 0, LYP act 13, PostGolgi yeast 2, Rev-RRE block 5 and EphB4 ephrin blk -1.
For CC1(C)CC(=O)C(C=Nc2ccccc2C(=O)O)=C(O)C1 the results were LYP inh 2 -7, S1P2 blocker 3, S1P2 agonist -4, PostGolgi ctrl 5, LYP act 6, PostGolgi yeast -6, Rev-RRE block 4 and EphB4 ephrin blk -8.
COc1ccc(C(C#N)Nc2ccccc2C)cc1 (centres undefined) was read as LYP inh 2 8, S1P2 blocker 7, S1P2 agonist -5, PostGolgi ctrl -1, LYP act -4, PostGolgi yeast 2, Rev-RRE block 5 and EphB4 ephrin blk 0.
For Cc1ccc(OCC(=O)N2CCN(C(=O)c3cccs3)CC2)cc1 the results were LYP inh 2 2, S1P2 blocker -10, S1P2 agonist 0, PostGolgi ctrl 4, LYP act -3, PostGolgi yeast 5, Rev-RRE block 4 and EphB4 ephrin blk -1.
`Cc1nc(SCCCSc2n[nH]c(C)n2)n[nH]1` gave LYP inh 2 -2, S1P2 blocker 9, S1P2 agonist -5, LYP act 5, Rev-RRE block 5 and EphB4 ephrin blk 1.
Screening CC(=O)Nc1nnc(CCN2CCCCC2)s1 returned LYP inh 2 -4, S1P2 blocker 26, S1P2 agonist -5, PostGolgi ctrl -5, LYP act 6, PostGolgi yeast 2, Rev-RRE block 3 and EphB4 ephrin blk 2.
Screening Cc1nc(-n2nnc3ccccc32)c2c3c(sc2n1)CCCC3 returned LYP inh 2 -4, S1P2 blocker 0, S1P2 agonist -6, PostGolgi ctrl 32*, LYP act 2, PostGolgi yeast 2, Rev-RRE block 9 and EphB4 ephrin blk -4.
COC(=O)C1=C(CSCc2ccco2)NC(=O)NC1c1cc(C)ccc1C (centres undefined) was read as LYP inh 2 16, S1P2 blocker -3, S1P2 agonist -8, PostGolgi ctrl 19, LYP act -17, PostGolgi yeast -3, Rev-RRE block 9 and EphB4 ephrin blk 9.
For CCCCn1nnnc1NCc1ccc(OC)c(OC)c1 the results were LYP inh 2 -7, S1P2 blocker -7, S1P2 agonist 0, PostGolgi ctrl 3, LYP act 4, PostGolgi yeast 1, Rev-RRE block 8 and EphB4 ephrin blk 5.
COc1cccc(OCC(=O)Nc2ccccc2C(N)=O)c1 was read as LYP inh 2 1, S1P2 blocker -11, S1P2 agonist -2, PostGolgi ctrl 16, LYP act -4, PostGolgi yeast -4, Rev-RRE block 5 and EphB4 ephrin blk -1.
`O=C(Cc1ccccc1)Nc1ccc2oc(-c3cccnc3)nc2c1` gave LYP inh 2 -2, S1P2 blocker 11, S1P2 agonist 1, PostGolgi ctrl 6, LYP act -1, PostGolgi yeast 30, Rev-RRE block 3 and EphB4 ephrin blk 5.
Screening CC(C)(C)n1nnnc1CN1CCN2CCCC2C1 (centres undefined) returned LYP inh 2 2, S1P2 blocker -2, S1P2 agonist -3, PostGolgi ctrl -6, LYP act 1, PostGolgi yeast -2, Rev-RRE block 6 and EphB4 ephrin blk -1.

Ordered by SMILES length (highest first): some entries from above.
COC(=O)C1=C(CSCc2ccco2)NC(=O)NC1c1cc(C)ccc1C (centres undefined) was read as LYP inh 2 16, S1P2 blocker -3, S1P2 agonist -8, PostGolgi ctrl 19, LYP act -17, PostGolgi yeast -3, Rev-RRE block 9 and EphB4 ephrin blk 9.
COc1cccc(OCC(=O)Nc2ccccc2C(N)=O)c1 was read as LYP inh 2 1, S1P2 blocker -11, S1P2 agonist -2, PostGolgi ctrl 16, LYP act -4, PostGolgi yeast -4, Rev-RRE block 5 and EphB4 ephrin blk -1.
`Cc1nc(SCCCSc2n[nH]c(C)n2)n[nH]1` gave LYP inh 2 -2, S1P2 blocker 9, S1P2 agonist -5, LYP act 5, Rev-RRE block 5 and EphB4 ephrin blk 1.
Screening CC(=O)Nc1nnc(CCN2CCCCC2)s1 returned LYP inh 2 -4, S1P2 blocker 26, S1P2 agonist -5, PostGolgi ctrl -5, LYP act 6, PostGolgi yeast 2, Rev-RRE block 3 and EphB4 ephrin blk 2.

More results follow:
`CC1(C)CC(=O)C2=C(C1)c1c(ccc3ccccc13)NC2c1ccco1` (centres undefined) gave LYP inh 2 11, S1P2 blocker -18, S1P2 agonist -3, PostGolgi ctrl 12, LYP act -8, PostGolgi yeast -7, Rev-RRE block 5 and EphB4 ephrin blk -3.
Screening O=C1Nc2c(c(=O)[nH]c(=O)n2-c2ccccc2)C(C(F)(F)F)(C(F)(F)F)N1 returned LYP inh 2 3, S1P2 blocker -5, S1P2 agonist -2, PostGolgi ctrl 18, LYP act -4, PostGolgi yeast 4, Rev-RRE block 8 and EphB4 ephrin blk 5.
`CCOC(=O)C1CCN(C(=O)c2ccc(N(C)S(C)(=O)=O)cc2)CC1` gave LYP inh 2 4, S1P2 blocker -16, S1P2 agonist 2, PostGolgi ctrl 1, LYP act -1, PostGolgi yeast -5, Rev-RRE block 1 and EphB4 ephrin blk 2.
N#Cc1cnc(SCC(=O)c2ccccc2)nc1N was read as LYP inh 2 -7, S1P2 blocker -9, S1P2 agonist -1, PostGolgi ctrl 11, LYP act 3, PostGolgi yeast -5, Rev-RRE block 21 and EphB4 ephrin blk 2.
For Clc1cccc(Cl)c1CO/N=C/c1c(-c2ccccc2)nc2n1CCS2 the results were LYP inh 2 1, S1P2 blocker -4, S1P2 agonist -2, PostGolgi ctrl 30*, LYP act 1, PostGolgi yeast -3, Rev-RRE block 10 and EphB4 ephrin blk 5.
`O=C(Nc1cccnc1)c1c(O)c2cccc3c2n(c1=O)CC3` gave LYP inh 2 -3, S1P2 blocker 2, S1P2 agonist -6, PostGolgi ctrl -1, LYP act 1, PostGolgi yeast -3, Rev-RRE block -14 and EphB4 ephrin blk -7.
For Cn1c(C2CC(=O)N(Cc3ccccc3)C2)nc2ccccc21 (centres undefined) the results were LYP inh 2 14, S1P2 blocker 1, S1P2 agonist -5, PostGolgi ctrl -3, LYP act -15, PostGolgi yeast 1, Rev-RRE block -2 and EphB4 ephrin blk -6.
`CC1CCc2c(sc3nc(C4CC4)nc(N4CCN(C(=O)c5ccco5)CC4)c23)C1` (centres undefined) gave LYP inh 2 11, S1P2 blocker -41, S1P2 agonist -3, LYP act -12, Rev-RRE block 4 and EphB4 ephrin blk -5.
`c1ccc(C(c2ccccc2)N2CCN(Cc3nnnn3C3CCCC3)CC2)cc1` gave LYP inh 2 -7, S1P2 blocker 11, S1P2 agonist -2, PostGolgi ctrl 22, LYP act 7, PostGolgi yeast 1, Rev-RRE block 0 and EphB4 ephrin blk 1.
For C=CCNC(=O)c1ccccc1NC(=O)c1ccc(Cl)c(S(=O)(=O)Nc2cc(C)ccc2C)c1 the results were LYP inh 2 -5, S1P2 blocker 0, S1P2 agonist -7, PostGolgi ctrl 18, LYP act 8, PostGolgi yeast -4, Rev-RRE block 0 and EphB4 ephrin blk -5.
O=C(COc1ccc(-c2ccccc2)cc1)N1CCN(C(=O)c2cccnc2)CC1 was read as LYP inh 2 -2, S1P2 blocker 15, S1P2 agonist -9, PostGolgi ctrl 4, LYP act 2, PostGolgi yeast 4, Rev-RRE block 1 and EphB4 ephrin blk -7.
